# SARS PLP yeast – qHTS of Yeast-based Assay for SARS-CoV PLP; S. cerevisiae expressing SARS-CoV PLpro, growth rescue; control for the full effect not named in the record; 330,000 compounds, 0.19% hits; Potency, µM (series often up to 32.9 µM), without a hit: at the top dose activity, positive = growth rescue; active means well fitted rising curve with a large enough effect; inconclusive means small, poorly fitted or top-dose-only effect; inactive means no such curve, though single readings can be large or run the other way; note: 0% is about no effect; nearly all actives have a fitted effect of over 55% in size; growth read by luminescence after 48 h
# Lassa entry inh – qHTS for Inhibitors of binding or entry into cells for Lassa Virus | Lassa virus pseudotype entry inhibition, cell reporter; control for the full effect not named in the record | Potency, µM (highest dose often 37.9 µM), without a hit: at the highest dose activity change, negative = inhibition, most hits filed as inhibitors | 300,000 compounds, 1.2% hits; active means well fitted inhibition curve with a large enough effect; inconclusive means small, poorly fitted or top-dose-only effect, or effect the other way; inactive means flat fitted curve, though single readings scatter; tested in HEK293 cells; note: % is set by controls: 0 for no effect and ±100 for the full control effect; nearly all actives have a fitted effect of over 50% in size; luciferase read-out
# Cruzain inh noDet – qHTS Assay for Promiscuous and Specific Inhibitors of Cruzain (without detergent); AID 1476, 2009; purified cruzain, Z-FR-AMC fluorescence, no detergent; Potency, µM, without a hit: max response, negative = inhibition, hits mostly inhibitors; 200,000 compounds, 2.3% hits;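 note: plate controls were enzyme without inhibitor for no effect and buffer without enzyme for full effect; nearly all actives have a fitted effect of over 40% in size; top concentration of the series not given in the record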
# Target sequence (P25779 123-467 limits assumed): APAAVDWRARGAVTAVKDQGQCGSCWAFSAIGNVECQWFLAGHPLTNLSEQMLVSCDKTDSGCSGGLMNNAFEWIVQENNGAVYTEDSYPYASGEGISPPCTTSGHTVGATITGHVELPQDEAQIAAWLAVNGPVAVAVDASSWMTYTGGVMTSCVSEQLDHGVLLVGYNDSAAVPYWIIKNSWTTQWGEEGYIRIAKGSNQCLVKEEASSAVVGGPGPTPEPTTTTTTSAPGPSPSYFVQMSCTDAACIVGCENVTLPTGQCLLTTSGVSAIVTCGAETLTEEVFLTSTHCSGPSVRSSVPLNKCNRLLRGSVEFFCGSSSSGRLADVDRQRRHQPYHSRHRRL
#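 Detergent-free condition (0.00005% Triton X-100) in acetate buffer pH 5.5 with DTT. 1.5 nM enzyme and compound were pre-mixed 15 min, then 2 uM Z-FR-AMC substrate added; reaction progress from fluorescence change between first and third reads (60 s).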
# RE007 growth inh – qHTS Assay for Inhibitors of the HIV-1 protein Vpr; S. pombe RE007 Vpr strain, BacTiter-Glo ATP luminescence, 24 h; control for the full effect not named in the record; Potency, µM (doses to about 92.2 µM), without a hit: at the highest dose activity change, negative = less growth; 360,000 compounds, 0.21% hits; AID 651644, 2012; active = well fitted falling curve with a large enough effect; inconclusive = small, poorly fitted or top-dose-only effect; inactive = no such curve, though single readings can be large or run the other way;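 note: % is set by controls: 0 for no effect and ±100 for the full control effect; nearly all actives have a fitted effect of over 50% in size; the assay follows cell death caused by Vpr and the record does not say whether a fall means rescue or toxicity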
#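 Fission yeast RE007 carrying one integrated HIV-1 vpr copy, seeded at OD 0.01 in PMG+AL medium with 23 nL pinned compound. Grown 24 h at 30 degrees; viability read by BacTiter-Glo luminescence after 5 min.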
# Cruzain Triton – qHTS Assay for Promiscuous and Specific Inhibitors of Cruzain (with detergent); purified cruzain, Z-FR-AMC fluorescence, 0.01% Triton; Potency, µM, for the others: max response, negative = inhibition, usual class: inhibitors; 200,000 compounds, 0.43% hits;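 note: plate controls were neutral wells for no effect and buffer without enzyme for full effect; nearly all actives have a fitted effect of over 40% in size; top concentration of the series not given in the record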
#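 Detergent-containing run (0.01% Triton X-100) in acetate buffer pH 5.5 with 5 mM DTT: enzyme at 1.5 nM final, 15 min compound preincubation at room temperature, then 2 uM Z-FR-AMC substrate. Activity taken as 60 s fluorescence increase at 360/450 nm.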
# NS1 function inh – qHTS Assay for Inhibitors of Influenza NS1 Protein Function; S. cerevisiae slowed by influenza A NS1, growth recovery by OD600; Potency, µM (top dose mostly 46.1 µM), inactives show top-dose activity, positive = more growth; 270,000 compounds, 0.4% hits; active means well fitted rising curve with a large enough effect; inconclusive means small, poorly fitted or top-dose-only effect; inactive means no such curve, though single readings can be large or run the other way; note: nearly all actives have a fitted effect of over 50% in size
#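 Read-out: OD600 growth recovery of NS1-expressing budding yeast. Cells grown overnight at 30C in -URA glucose medium, washed, resuspended and diluted 1:100 in 2% galactose assay medium, pH 6.0. Same strain lacking NS1 served as positive control.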
# 2A StopGo – High Throughput Screening for Foot and Mouth Disease Virus Antivirals. human cells with a luciferase reporter of 2A StopGo recoding; control for the full effect not named in the record. AID 1159524, 2015. Potency, µM (highest dose often 57.9 µM), for inactives: top-dose signal change, negative = less light. 410,000 compounds, 1.2% hits; active = well fitted falling curve with a large enough effect; inconclusive = small, poorly fitted or top-dose-only effect; inactive = no such curve, though single readings can be large or run the other way; tested in HEK293T cells; note: % is set by controls: 0 for no effect and ±100 for the full control effect; nearly all actives have a fitted effect of over 45% in size; luciferase light after 4 h
# MARV entry inh – qHTS for inhibitors of binding or entry into cells for Marburg Virus; Marburg virus pseudotyped entry inhibition, cell reporter; control for the full effect not named in the record; about a third of the inactives were read at about 46 µM; Potency, µM (top dose mostly 37.8 µM), inactives show at the top dose activity change, negative = inhibition, most hits filed as inhibitors; 300,000 compounds, 1.8% hits; active = well fitted inhibition curve with a large enough effect; inconclusive = small, poorly fitted or top-dose-only effect, or effect the other way; inactive = flat fitted curve, though single readings scatter; tested in HEK293 cells; about a fifth of its hits are not listed in these tables; note: % is set by controls: 0 for no effect and ±100 for the full control effect; luciferase read-out
# Active calls of the source: *; ? = inconclusive; . = not tested or not shown; & = joins results of further samples; [ ] = dose if it differs, or a comment. Unless noted, calls come from the whole dose curve; as a rule, active = well fitted curve in the direction sought with a large enough effect; inconclusive = small, poorly fitted or top-dose-only effect, or another doubt; inactive = no such curve, though single readings can be large; an effect the other way counts as inactive or inconclusive. Potency is the fitted concentration of half-maximal effect.
SMILES,SARS PLP yeast,Lassa entry inh,Cruzain inh noDet,RE007 growth inh,Cruzain Triton,NS1 function inh,2A StopGo,MARV entry inh
COc1ccc(OC)c(NC(=O)c2ccc(-c3nc(COc4ccccc4)c(C)o3)cc2)c1,.,1%[46.1 µM],16%,.,-2.0%,.,?,.
COc1ccc(CN2CCOCCOCCN(Cc3ccc(OC)cc3)CCOCCOCC2)cc1,-1%,?,.,-2%,.,-1%,-26%,?
Cc1ccc(NC(=O)CN(C)CC(=O)Nc2ccc(N3CCOCC3)cc2)c(C)c1,-9%,-3%,-1%,3%,0.6%,21%,-1%,3%
COCCn1cc(C(=S)N2CCOCC2)c2ccccc21,-4%,4%,-5%,2%[3.69 µM],0.8%,-6%,-15%,11%
O=C(NCCc1ccncc1)C(F)(F)F,4%,4%,-1%,-7%,2.4%,12%,-2%,0%
C/C(=N\Nc1nc(C)cc(-c2ccccc2)n1)c1ccc(O)cc1,-5%,.,.,10%,.,-10%,10%,.
O=C(CCCOc1ccccc1)Nc1ccncc1,4%,-4%,-3%,-6%,1.2%,10%,-9%,7%
CCn1c2ccccc2c2cc(/C=N/n3cn[nH]c3=S)ccc21,-17%,5%,-20%,-27%,-7.2%,-126%,-3%,10µM*
Nc1nc(SCC(=O)c2cc3ccccc3o2)n[nH]1,0%,.,.,6%,.,-2%,42%[activator],.
COc1ccc(N(C(=O)COc2cccc(C)c2)S(=O)(=O)c2ccc(C)cc2)cc1,7%,?,-4%,5%,-3.9%,14%,-1%,-8%
CCOC(=O)N1CCC(NC(=O)Cn2cccc2C(=O)c2ccccc2C)CC1,-4%,-1%,13%,13%,-1.9%,3%,-5%,-17%
CCc1ccc(S(=O)(=O)N(C(=O)c2ccncc2)c2ccc(OC(=O)c3ccncc3)cc2)cc1,-56%,-3%,?,41%,-4.3%,-43%,-17%,?
Cc1ccc(S(N)(=O)=O)cc1NC(=O)/C=C/c1ccc2c(c1)OCO2,1%,11%,.,-5%,.,.,22%,-20%[46.1 µM]
CC(c1ccccc1)N1CCn2c(nc3cc(NC(=O)NC4CCCCC4)ccc32)C1 (stereo not given),4%,-16%,?,6%,2.8%,6%,-13%,-6%
CCOC(=O)C1=C(COC(=O)/C=C/c2ccc(Cl)cc2)NC(=O)NC1C (stereo not given),0%,0%,.,-3%,.,21%,-12%,?
Cc1ccc(NC(=O)CCNC(=O)c2ccc(Br)cc2)nc1,0%,.,.,-1%,.,-2%,14%,.
CC1(CCl)CN1S(=O)(=O)c1ccccc1 (stereo not given),-1%,.,.,4%,.,-2%,0%,.
Cc1cc(SCc2ccc([N+](=O)[O-])cc2)nc(=O)[nH]1,0%,.,.,-5%,.,11%,7%,.
S=C(NCC1CCCO1)Nc1ccc(Nc2ccccc2)cc1 (stereo not given),-1%,-15%,.,-2%,.,-2%,-23%,-7%[14.2 µM]
CN1CCN(CCC(=O)Nc2cccc(Br)c2)CC1,2%,26%[46.1 µM],.,-7%,.,-60%,-15%,?
CCOc1ccccc1CN1CCN(Cc2[nH]c3ccccc3c2C)CC1CCO (stereo not given),0%,.,.,-2%,.,5%,-20%,.
CCOC(=O)c1c(C)[nH]c(C)c1C(=O)COc1ncnc2ccccc12,0%,23%,.,4%,.,.,-22%,?
O=C(N/N=C/c1cccc(OC(=O)N2CCOCC2)c1)c1cccs1,14%,-10%,-9%,4%,-4.6%,-3%,8%,?
CCCc1nn(-c2ccccc2)c2c1C(c1cccs1)C(C#N)=C(N)O2 (stereo not given),-2%,2%,12%,-9%,-11%,13%,-27%,2%
CCOCCn1c(CN2CCN(C(c3ccccc3)c3ccccc3)CC2)nc2c1c(=O)n(C)c(=O)n2C,1%,-18%,.,0%,.,-3%,-18%,1%[46.1 µM]

# Some of these compounds in order of length of the SMILES, smallest number first.
SMILES,SARS PLP yeast,Lassa entry inh,Cruzain inh noDet,RE007 growth inh,Cruzain Triton,NS1 function inh,2A StopGo,MARV entry inh
O=C(CCCOc1ccccc1)Nc1ccncc1,4%,-4%,-3%,-6%,1.2%,10%,-9%,7%
Cc1ccc(NC(=O)CCNC(=O)c2ccc(Br)cc2)nc1,0%,.,.,-1%,.,-2%,14%,.
CCn1c2ccccc2c2cc(/C=N/n3cn[nH]c3=S)ccc21,-17%,5%,-20%,-27%,-7.2%,-126%,-3%,10µM*
O=C(N/N=C/c1cccc(OC(=O)N2CCOCC2)c1)c1cccs1,14%,-10%,-9%,4%,-4.6%,-3%,8%,?
COc1ccc(N(C(=O)COc2cccc(C)c2)S(=O)(=O)c2ccc(C)cc2)cc1,7%,?,-4%,5%,-3.9%,14%,-1%,-8%

# (listing goes on)
SMILES,SARS PLP yeast,Lassa entry inh,Cruzain inh noDet,RE007 growth inh,Cruzain Triton,NS1 function inh,2A StopGo,MARV entry inh
CC(=O)N(Cc1cc(=O)[nH]c2ccccc12)c1ccccc1C,2%,?,.,2%,.,-2%,-10%,?
CCC(C)(CC(=O)O)CC(=O)Nc1cc(C(F)(F)F)cc(C(F)(F)F)c1 (stereo not given),0%,2%,.,20%,.,4%,-21%,15%
COc1ccc(Nc2cc(C)nc3c(C)c(C)ccc23)cc1,.,?,-17%,.,-8.4%,.,-23%,.
O=C(Nc1ncn[nH]1)c1ccccc1Br,2%,26%,-8%,-10%,0.2%,5%,-11%,?
Cc1ccc(NC(=O)c2nn(C)c3c2CS(=O)(=O)c2ccccc2-3)c(Cl)c1,.,2%[46.1 µM],11%,.,-2.6%,.,-2%,.
O=C(COc1ccc(Cl)cc1)N1CCCCC1,-7%,?,-3%,8%,4.8%,4%,38%[activator],3%[46.1 µM]
COc1ccc(Cc2c(O)nc(SCC(=O)NC34CC5CC(CC(C5)C3)C4)[nH]c2=O)cc1,1%&0%,-2%,.,-9%&20%,.,15%&-8%,-10%&-25%,4%&4%[46.1 µM]
Cc1ccc(Cl)cc1NC(=S)N(CCN(C)C)Cc1cccs1,1%,?,.,12%,.,-4%,-8%,?
O=C1CC(c2ccc(Cl)cc2)n2nc(NS(=O)(=O)c3ccc(F)cc3)nc2N1 (stereo not given),1%,-2%,4%,0%,1.0%,3%,-2%,-4%
O=C(NN=Cc1cc([N+](=O)[O-])ccc1O)c1cccc2ccccc12,.,7.1µM*,.,-10%,.,.,-4%,10µM*
Cc1c(-c2nc(-c3ccc(C(F)(F)F)cc3)no2)n(C)oc1=O,0%,.,.,-9%,.,1%,-15%,?
CC(C)(C)C(=O)Nc1cccc(-c2nc3ccccc3[nH]2)c1,-7%,0%,1%,-13%,0.2%,-4%,-12%,-9%
COc1cc(NC(=O)CSc2nc(C)cs2)cc(OC)c1,3%,18%,3%,-5%,0.7%,-8%,.,?
CC1=C(C(=O)NC2CC(C)(C)Cc3c2cnn3-c2cccc(F)c2)OCCO1 (stereo not given),-3%,.,.,9%,.,-13%,22%,.
CCNC(=S)N1CCc2cc(OC)c(OC)cc2C1COc1ccc(OC)cc1 (stereo not given),0%,-28%[46.1 µM],.,6%,.,.,-7%,?
COc1ccc(S(=O)(=O)N2CCOC2CNC(=O)C(=O)NCCCN2CCOCC2)cc1 (stereo not given),-7%,2%,.,-27%,.,8%,-20%,1%
C=CCn1c(=O)c2ccccc2n2c(SCC(=O)NC)nnc12,-2%,.,.,8%,.,2%,-16%,.
CCn1c(SCC(=O)Nc2ccccc2C(=O)OC)nc2c1c(=O)n(C)c(=O)n2C,1%,.,-4%,.,2.3%,-5%,.,-3%
C=CS(=O)(=O)c1ccc(Oc2ccc(S(=O)(=O)C=C)cc2)cc1,-86%,6.5µM*,-7%,0%,-8.2%,-56%,4µM*,?
COc1ccc(CNC(=O)C(C)NS(=O)(=O)c2ccc(C)cc2)cc1 (stereo not given),1%,.,.,4%,.,5%,-16%,.
COCCC(=O)N1CCC(Oc2ccc(C(=O)N3C[C@@H]4CCC[C@H]3C4)cc2)CC1,8%,.,.,3%,.,0%,18%,.
O=S(=O)(/N=C(\Sc1ccccc1)c1ccccc1)c1ccc(Cl)cc1,?,-9%,0%,7%,2.6%,5%,9%,?
CS(=O)(=O)c1ccc(Cl)c(NC(=O)Cc2ccsc2)c1,-2%,.,.,-1%,.,18%,0%,.
Cn1cccc1CNCC(O)c1ccccc1 (stereo not given),-1%,17%,.,-10%,.,12%,-2%,3%
CC(=O)N1CCc2c(sc3c2c(=O)n(-c2cccc(Cl)c2)c(=O)n3Cc2ccc(F)cc2Cl)C1,.,-18%[46.1 µM],?,.,-1.8%,.,?,.

# 6 of the compounds above, as tab-separated lines:
Structure	SARS PLP yeast	Lassa entry inh	Cruzain inh noDet	RE007 growth inh	Cruzain Triton	NS1 function inh	2A StopGo	MARV entry inh
COc1ccc(CNC(=O)C(C)NS(=O)(=O)c2ccc(C)cc2)cc1 (stereo not given)	1%	.	.	4%	.	5%	-16%	.
COCCC(=O)N1CCC(Oc2ccc(C(=O)N3C[C@@H]4CCC[C@H]3C4)cc2)CC1	8%	.	.	3%	.	0%	18%	.
O=S(=O)(/N=C(\Sc1ccccc1)c1ccccc1)c1ccc(Cl)cc1	?	-9%	0%	7%	2.6%	5%	9%	?
CS(=O)(=O)c1ccc(Cl)c(NC(=O)Cc2ccsc2)c1	-2%	.	.	-1%	.	18%	0%	.
Cn1cccc1CNCC(O)c1ccccc1 (stereo not given)	-1%	17%	.	-10%	.	12%	-2%	3%
CC(=O)N1CCc2c(sc3c2c(=O)n(-c2cccc(Cl)c2)c(=O)n3Cc2ccc(F)cc2Cl)C1	.	-18%[46.1 µM]	?	.	-1.8%	.	?	.

# High-throughput results as filed in PubChem.

# Compounds as they come. Share with any hit: about 4.7%.
